NPR1 antag = human Npr1 receptor antagonism; P16066; HEK293 hNpr1 GloSensor cGMP, ANP-stimulated luminescence; Potency, µM (doses to about 46.3 µM), inactives show at the top dose activity change, negative = inhibition, most hits filed as inhibitors; hit rate 1.6% among 76,000; active = well fitted inhibition curve with a large enough effect; inconclusive = small, poorly fitted or top-dose-only effect; inactive = no such curve, though single readings can be large or run the other way;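 further: nearly all actives have a fitted effect of over 60% in size; nearly all hits also lower the signal before the agonist is added; a reference antagonist and vehicle were the controls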
Target sequence (P16066 whole entry, looked up): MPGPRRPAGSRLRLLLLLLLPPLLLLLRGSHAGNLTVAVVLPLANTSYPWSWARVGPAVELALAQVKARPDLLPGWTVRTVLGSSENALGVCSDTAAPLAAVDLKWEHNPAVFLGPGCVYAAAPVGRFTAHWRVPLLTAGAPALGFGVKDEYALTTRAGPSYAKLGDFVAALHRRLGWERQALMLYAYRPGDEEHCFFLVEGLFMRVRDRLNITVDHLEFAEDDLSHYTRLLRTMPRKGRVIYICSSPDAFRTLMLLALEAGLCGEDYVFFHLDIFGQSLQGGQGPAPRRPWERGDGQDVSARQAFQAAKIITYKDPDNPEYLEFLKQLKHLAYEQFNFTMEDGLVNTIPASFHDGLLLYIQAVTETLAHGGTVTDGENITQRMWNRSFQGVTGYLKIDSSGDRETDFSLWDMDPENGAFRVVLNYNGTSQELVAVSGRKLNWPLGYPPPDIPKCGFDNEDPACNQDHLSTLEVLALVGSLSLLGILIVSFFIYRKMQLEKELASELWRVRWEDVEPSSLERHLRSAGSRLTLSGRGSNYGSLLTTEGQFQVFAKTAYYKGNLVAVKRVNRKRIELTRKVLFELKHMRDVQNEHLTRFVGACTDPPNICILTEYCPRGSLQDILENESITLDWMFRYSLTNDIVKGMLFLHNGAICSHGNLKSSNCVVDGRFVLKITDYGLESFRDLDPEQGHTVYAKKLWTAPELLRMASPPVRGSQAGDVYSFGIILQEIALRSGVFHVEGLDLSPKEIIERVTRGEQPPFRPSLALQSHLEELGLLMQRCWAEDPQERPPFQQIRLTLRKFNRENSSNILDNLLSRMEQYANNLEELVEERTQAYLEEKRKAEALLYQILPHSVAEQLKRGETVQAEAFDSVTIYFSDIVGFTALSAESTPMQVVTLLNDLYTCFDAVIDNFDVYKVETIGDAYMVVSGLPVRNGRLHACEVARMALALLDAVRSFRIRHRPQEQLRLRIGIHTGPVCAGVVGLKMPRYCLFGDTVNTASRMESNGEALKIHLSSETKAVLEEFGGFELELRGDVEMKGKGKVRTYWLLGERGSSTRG
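HEK293 cells stably expressing human Npr1 and cGMP GloSensor pGS-40F, loaded 2 h with 2% GloSensor reagent, given compound 30 min at room temperature. Luminescence read before and 20 min after 0.1 nM hNppA.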
* = called active by the depositor; ? = inconclusive; [ ] = remark or other dose. On the % scale 0 is the no-effect control and ±100 the full control effect; potency means the concentration at half of the fitted maximal effect.

SMILES	NPR1 antag
CCCNC(=O)N1CC(C(=O)N(C)C)C2(CCOCC2)C1 (stereo not drawn)	1%
CN(CCc1ccccn1)C(=O)C1CCCN(c2cnn(Cc3ccccc3)c(=O)c2)C1 (stereo not drawn)	-2%
COCCN1C(=O)c2cccn2CC1CNC(=O)Nc1cccc(C)c1 (stereo not drawn)	3%
CCOc1ccccc1C(=O)N1[C@@H]2CC[C@H]1CC(NC(=O)c1cnc(C)cn1)C2 (stereo partly drawn)	-4%
Cc1cc(C(=O)N[C@H]2CCOC[C@H]2C2CCOCC2)cc2sc(N)nc12	1%
Cc1ccc(C(=O)N2C[C@@H](N)C[C@H]2C(=O)NC(C)C)cc1N1CCNC1=O	1%
CCOc1ccccc1CN1CCC2(CCN(C(=O)Nc3ccc(Cl)cc3)CC2)Oc2ccccc21	-6%
CCCC(=O)N1CCC(N2C[C@H](O)C[C@H]2C(=O)NCc2cccc(OC)c2)CC1	1%
COCc1noc([C@@H]2CN(C(=O)CC3=CCCCC3)C[C@H]2CO)n1	-1%
COc1ccc(CCNC(=O)[C@H]2CCC[C@H]2NC(=O)c2ccncc2)cc1OC	1%
C[C@@H](NC(=O)C[C@@H]1[C@H](O)CC[C@@H]2[C@](C)(CO)[C@H](O)CC[C@]21C)c1ccccc1	0%[70.6 µM]
O=C(NC1CCCCC1)[C@@H]1Cc2nc[nH]c2CN1Cc1ccc(Cl)cc1	-10%[70.6 µM]
CCc1ccc(C(=O)N2CCC(N3C(=O)CCC3C(=O)NC(C)C)CC2)cc1 (stereo not drawn)	0%
Cn1ccnc1C(=O)N1CCC(Oc2cccc(F)c2)C1 (stereo not drawn)	2%
CC(C)c1ccc(NC2=N[C@H]3[C@@H](O)[C@H](O)C[C@H](C(=O)NC4CCCC4)[C@H]3S2)cc1	-2%[70.6 µM]
OC1(c2csc(CN3CCc4ccccc4C3)n2)CCN(Cc2ccccc2F)CC1	-1%
CCOc1ccccc1CN1CCC(Cc2nc(-c3cccnc3)n[nH]2)C1 (stereo not drawn)	3%
O=C(C[C@@H]1O[C@H](CNS(=O)(=O)c2ccccc2)[C@@H](O)[C@H]1O)N1CCN(c2ccc(F)cc2)CC1	0%
CC(C)OCCCNC(=O)CCC1CCN(C(=O)c2ccccc2F)CC1	1%
COc1ccc(N2Cc3c(NCCOc4ccccc4)ncnc3N(C)CC2=O)cc1	-1%
CC(C)c1ccc(N2C(=O)N[C@@H]3CCN(S(=O)(=O)c4cccs4)[C@@H]3C2=O)cc1	1%[70.6 µM]
Cc1ccc2c(n1)N(C)[C@H](CO)CCN(Cc1cnc3ccccc3c1)C2	2%[70.6 µM]
COc1ccc(C2(C(=O)N3CCCC(c4nc(-c5cccnc5)no4)CCNC(=O)CC3)CC2)cc1 (stereo not drawn)	6%
O=C(Nc1cccc(-c2nnc3n2CCCC3)c1)C1CCCCC1	-8%
COc1cccc(-c2noc(CC3CCN(C(=O)c4ccc(C(C)C)cc4)CC3)n2)c1	10µM*

Ordered by heavy-atom count (low to high): part of the list above
SMILES	NPR1 antag
Cn1ccnc1C(=O)N1CCC(Oc2cccc(F)c2)C1 (stereo not drawn)	2%
O=C(Nc1cccc(-c2nnc3n2CCCC3)c1)C1CCCCC1	-8%
CCOc1ccccc1CN1CCC(Cc2nc(-c3cccnc3)n[nH]2)C1 (stereo not drawn)	3%

In the list so far, 2 have an NH in an aromatic ring.
SMILES	NPR1 antag
O=C(NC1CCCCC1)[C@@H]1Cc2nc[nH]c2CN1Cc1ccc(Cl)cc1	-10%[70.6 µM]
CCOc1ccccc1CN1CCC(Cc2nc(-c3cccnc3)n[nH]2)C1 (stereo not drawn)	3%

(cont.)
SMILES	NPR1 antag
COCCN1CC(CO)C2(CCN(C(=O)Cc3ccccc3OC)CC2)C1 (stereo not drawn)	-1%
COc1ccc(-c2ccc3c(c2)C(=O)N2CC[C@H](NS(=O)(=O)c4cccs4)[C@H]2C(=O)N3)cc1	?
OC[C@@H]1CN(Cc2ccccc2OC(F)(F)F)C[C@H]1c1ccncc1	-29%
COc1ccccc1-c1cc(N2CCN(c3ccccn3)CC2)c2onc(C)c2n1	-3%[70.6 µM]
COc1ccc(CN2C[C@@H](F)[C@@H](OCc3nc4ccccc4o3)C2)cc1	-23%[70.6 µM]
CN(C)CCN(C)CC[C@H]1CN(C(=O)Cc2ccccc2)CC[C@H]1CC(=O)O	-1%[70.6 µM]
O=c1n(-c2ccc(F)cc2F)nc2n1CCN([S+](=O)([O-])c1cccc(C(F)(F)F)c1)C2	-19%
O=C(N[C@H]1C[C@H]2C(=O)NC[C@@H](CCC(=O)N3CCN(c4ccccc4)CC3)N2C1)c1cccs1	9%
Cc1cc(C[C@@H]2COC[C@@H]2NC(=O)c2ccc(-c3ccccc3Cl)o2)on1	0%
COCCNC(=O)c1nc(-c2ccccc2OC)c2ccccn12	1%[70.6 µM]
COc1ccc(-c2cn(C)c(=O)n3cc(CN4CCNC(=O)C4)nc23)cn1	3%[70.6 µM]
CCn1c2c(c(=O)n1Cc1ccccc1)CCN(C(=O)c1cn[nH]c1)C2	-1%[70.6 µM]
Cn1cc(-c2cnc(Nc3ccncc3)c3c2CCO3)cn1	2%[70.6 µM]
COC[C@@H]1CN(Cc2cccc(C)c2)C[C@H]1C(=O)NC1CC1	-2%
O=C(CCc1ccccc1)N1CC(Oc2ccc(-c3nc(-c4ccccc4)no3)cc2)C1	?
Cc1nn(-c2ccccn2)c(C)c1[C@@H]1C=C[C@@H](NC(=O)c2ccco2)C1	-1%[70.6 µM]
COc1cccc(CC(=O)N2CCCN(C)c3ccccc32)c1	-11%
COCCN1C(=O)CCc2cc(NC(=O)c3ccc(OC(F)(F)F)cc3)ccc21	-8%
COc1ccc(-c2noc([C@@H]3C[C@@H](O)CN3C3CCN(C)CC3)n2)cc1	7%[70.6 µM]
O=C([C@@H]1C[C@H](F)CN1S(=O)(=O)c1ccc(F)c(Cl)c1)N1CCCCC1	0%
COC[C@@H]1[C@H](NC(=O)c2cc(-c3cccn3C)n[nH]2)[C@@H]2CCO[C@H]12	7%
O=C1N(Cc2ccc(F)cc2)C[C@H]2CN(Cc3cnc4ccccc4c3)CCN12	?
CC(C)CN1CCN(c2ncncc2-c2nc(-c3ccccc3)no2)CC1	3%
Cc1ccc(OCC(=O)NCCC2CCN(C(=O)Nc3ccccc3F)CC2)cc1	-4%
O=C(CC[C@H]1NC(=O)c2ccccc2NC1=O)Nc1nnc(Cc2ccccc2)s1	2%
SMILES	NPR1 antag
COCCN1C(=O)CC[C@]2(C(=O)NCc3cccc(C)c3)CCCC[C@@H]12	2%
CNC(=O)NC[C@H]1CCN(Cc2cccc(F)c2F)C[C@H]1N(C)C	2%
CCN1c2cc(C(=O)Nc3ccccc3)ccc2C(=O)N2CCCCC21 (stereo not drawn)	0%
CC(C)(C)c1nnc([C@H]2CCN(C(=O)CCC(=O)O)C2)o1	-2%[70.6 µM]
CCn1cc(CN2C[C@@H](COC)[C@H](C(=O)N(C)C)C2)cn1	7%
Cc1nsc(NC(=O)N2CCCN(c3ccccc3)CC2)n1	-7%
Cc1ccc(C#N)c(NCc2cccnc2N2CCN(c3ccccn3)CC2)n1	-19%
COC[C@@H]1CN(C(=O)c2nccc3ccccc23)C[C@H]1c1ccncc1	-10%
CCn1cc(-c2ccncc2)cc1C(=O)NCc1ccc(OC(C)C)cc1	-8%
Cn1cccc1C(=O)NC1CCCN(c2cc(-c3ccc(F)cc3)[nH]n2)C1 (stereo not drawn)	-12%
COc1ncccc1-c1cnc2[nH]cc(CC(=O)Nc3nc(C)cs3)c2c1	?
O=C(NCc1cccnc1)c1nc(-c2ccc(Cl)cc2)c2ccccn12	0%
Cc1cnc(-c2cccnc2)n1CC1CCN(CC2CC2)CC1	7%
N[C@@H]1CCN(Cc2cccc(Oc3ccc(F)cc3)c2)C[C@H]1O	1%
CC[C@H]1CN(C(=O)c2ccccc2)CC[C@H]1CC(=O)NCc1ccc(F)cc1	1%[70.6 µM]
CCn1ncc(N2CCCC(CC(=O)NCCc3cccs3)C2)cc1=O (stereo not drawn)	0%
O=c1[nH]nc2n1CCC(NS(=O)(=O)c1cccc3cccnc13)CC2 (stereo not drawn)	-1%
OCCc1cc(CC2(N(CC3CC3)CC3CC3)COC2)no1	0%[70.6 µM]
N#Cc1ccc(CN2CC[C@H](c3nnc(Cc4ccccc4)o3)C2)cc1	1%[70.6 µM]
COc1ccc(-c2cc(N3CCCC(NC(=O)c4ccc(F)cc4F)C3)n[nH]2)cc1 (stereo not drawn)	-28%
Cc1cc(N2CCN(C(=O)CCCS(N)(=O)=O)CC2)cc(C)n1	3%
COc1ccc(CN2CCC3(CC2)C(C(=O)O)CC(=O)N3C)cc1Cl (stereo not drawn)	7%
COc1ccccc1C(=O)N1CC(Oc2ccc(-c3nc(-c4ccccc4)no3)cc2)C1	11µM*
Cc1nnc2n1CCC(NC(=O)NCc1ccco1)CC2 (stereo not drawn)	-3%
COc1cncc([C@@H](NC(=O)Cc2ccsc2)C2CC(O)C2)c1 (stereo partly drawn)	1%
SMILES	NPR1 antag
CC(C)CNC(=O)N1CCCOCCNC(=O)[C@@H]2CCC[C@@H]21	0%
Cc1nc2n(c1C(=O)Nc1nccs1)CCC(Nc1ccccc1)C2 (stereo not drawn)	-3%[70.6 µM]
CN1CCCC1c1nc(C2CN(S(=O)(=O)c3ccc(C#N)cc3)C2)no1 (stereo not drawn)	5%
Cc1ccc(C(=O)N2CCN(C(=O)c3nnn4c3COC(c3ccc(Cl)cc3)C4)CC2)cc1F (stereo not drawn)	-1%
Cc1ccc(C)c(NC(=O)C2CCN(c3cc(C(F)(F)F)ncn3)CC2)c1	-21%
COc1ccc(CC(=O)N2CCc3cn(C)c4cccc(c34)C2)cc1	4%
CC1(c2ccccc2)N(Cc2ccccc2)C(=O)OC12CCN(c1ccncc1)CC2 (stereo not drawn)	-25%[70.6 µM]
CCCN(C)C(=O)CCc1ccnc(N2CCOCC2)c1	7%
CCCN(CC1CCOC1)C(=O)Nc1cc(Cl)ccc1C (stereo not drawn)	-3%
CC(C)Cn1nc2n(c1=O)CCN(S(=O)(=O)c1ccc(C(C)(C)C)cc1)CC2	-4%
O=C(NCc1cccc(F)c1)C1CCN(C(=O)c2ncn3c2COC(c2ccccc2)C3)CC1 (stereo not drawn)	-5%
COc1ccc(F)cc1CN1CCCC(CO)(CC2CC2)C1 (stereo not drawn)	-11%
COc1ccc(C)cc1NC(=O)CN1C(=O)NC2(CCC(C)CC2)C1=O (stereo not drawn)	0%
CN1C[C@H](NCc2nccs2)CCC[C@@H](C(=O)NC2CCOCC2)CC1=O	-1%[70.6 µM]
COCCn1c(C)cnc1C1CCN(C(=O)c2ccc(OC)nc2)C1 (stereo not drawn)	5%
COc1cc(CN2CCC3(CCN(CC4CC4)CC3)C(CO)C2)ccc1F (stereo not drawn)	-1%
O=C(CCn1ccc(=O)[nH]c1=O)N1CCn2nc(Cc3ccccc3)cc2C1	5%
CN(C)C(=O)c1cccnc1OC1CCN(C(=O)c2cccc(Br)c2)C1 (stereo not drawn)	-13%
O=C(COc1ccccc1)N[C@H]1CO[C@H]2[C@@H]1OC[C@@H]2n1nnnc1-c1ccc2c(c1)OCO2	-1%
COc1ccccc1NC(=O)Cn1c(C)ccc(NC(=O)Nc2ccc(C)cc2)c1=O	?
COc1cccc(CN2CCc3nnc([C@@H]4C[C@@H](O)CN4C)n3CC2)c1	-13%
Cc1noc(-c2cccs2)c1C(=O)N1CCC(Cc2ccccc2)CC1	-16%
CCNC(=O)O[C@H]1COCCN(c2nc3ccccc3o2)C1	4%[70.6 µM]
Cc1ccccc1S(=O)(=O)N1C[C@@H](Oc2cccnc2)C[C@H]1C(=O)NC1CC1	4%
Cc1ccsc1C(=O)N1CCC2(CC1)N=C(c1cccc(Br)c1)NO2	13µM*
SMILES	NPR1 antag
Cc1nc(C(=O)N2CC(F)(F)C[C@H]2c2nc(C3CC3)no2)co1	1%
CNC(=O)NCC(=O)N1CCCCCNC(=O)CC1c1ccccc1 (stereo not drawn)	6%
COCCC(=O)N1CCCN(C(=O)C2CC2)c2ccccc21	2%
CCOc1ccc(-c2cc3c(=O)n(CCNC(=O)c4ccc(C#N)cc4)ccn3n2)cc1	-2%
Cc1cccc(NC(=O)N2CCC3(CC2)CC(N(C(=O)NC(C)C)C2CC2)CCO3)c1 (stereo not drawn)	-15%
O=C(c1n[nH]c2ccccc12)N1CCC(OCCOc2ccc(F)cc2)CC1	?
O=C(CN1CCOc2c(O)cc(-c3csc4ccccc34)cc2C1)N1CCOCC1	-3%
CC(C)C(=O)Nc1ccc(C2OC(=O)N(Cc3ccc(F)cc3)C2C(=O)NC2CC2)cc1 (stereo not drawn)	2%

An excerpt from above in order of the NPR1 antag value, high to low:
SMILES	NPR1 antag
Cc1ccsc1C(=O)N1CCC2(CC1)N=C(c1cccc(Br)c1)NO2	13µM*
COc1ccccc1C(=O)N1CC(Oc2ccc(-c3nc(-c4ccccc4)no3)cc2)C1	11µM*
COc1cccc(-c2noc(CC3CCN(C(=O)c4ccc(C(C)C)cc4)CC3)n2)c1	10µM*

Bioassay records deposited in PubChem by National Center for Advancing Translational Sciences (NCATS).

Some of the compounds tested; count on the stated rates, not on these rows.
